Assay outcomes as filed in PubChem BioAssay.
D2 PAM: Beta-Arrestin HTS for Positive Allosteric Modulators of the Human D2 Dopamine Receptor: Potentiators. potentiation, % (concentration not given with the values). AID 624464, 2012. 0.23% of 360,000 active. D(2) dopamine receptor (Homo sapiens), P14416. DiscoveRx D2 beta-arrestin cells, luminescence, 90 min; 100% = 57 uM dopamine signal; active = potentiation of 50% or more; inconclusive = 30% to 50%; inactive = 30% or less;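 note: compound concentration not given in the record; tested on top of an EC20 dose of dopamine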
Target sequence (P14416 whole entry, looked up): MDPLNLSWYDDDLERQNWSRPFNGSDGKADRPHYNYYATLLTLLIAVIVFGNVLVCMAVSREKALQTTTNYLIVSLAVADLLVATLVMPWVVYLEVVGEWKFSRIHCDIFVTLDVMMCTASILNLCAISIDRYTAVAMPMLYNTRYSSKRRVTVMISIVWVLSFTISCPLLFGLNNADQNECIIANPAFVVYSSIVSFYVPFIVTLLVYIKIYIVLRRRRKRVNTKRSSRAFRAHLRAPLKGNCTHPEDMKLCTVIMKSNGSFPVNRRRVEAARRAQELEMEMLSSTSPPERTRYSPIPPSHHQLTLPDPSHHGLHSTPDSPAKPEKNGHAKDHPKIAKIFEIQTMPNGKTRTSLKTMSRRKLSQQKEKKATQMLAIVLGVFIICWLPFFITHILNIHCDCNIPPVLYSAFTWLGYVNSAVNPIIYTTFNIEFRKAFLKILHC
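PathHunter D2 cells, attached overnight at 37 deg C, received compound in DMSO plus dopamine at EC20 (50 nM final) for 90 min at 37 deg C. Beta-arrestin recruitment was read as luminescence after 1 h with detection reagent at ambient temperature.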
PINK1 expr mod: A Quantitative High throughput Screen to Identify Chemical Modulators of PINK1 Expression; Potency, µM (highest dose often 76.6 µM), for the others: top-dose activation (PINK1 increase), usual class: activators; PINK1 immunofluorescence, high-content cytometry, 24 h; 0.2% of 410,000 active; active = well fitted activation curve with a large enough effect; inconclusive = small, poorly fitted or top-dose-only effect; inactive = flat fitted curve, though single readings scatter; cell line not stated here;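 note: potency is the fitted concentration of half-maximal effect; % of control where 0% means no effect; nearly all actives have a fitted effect of over 65% in size; a mitochondrial uncoupler was the plate control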
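Decision-based qHTS: stable cells, 24 h exposure to five compound concentrations, CCCP as control. Fixed cells stained for PINK1 plus nuclear, mitochondrial and cell markers, cytometer read.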
Six1-Eya2 inh: qHTS Assay for Inhibitors of the Six1/Eya2 Interaction; Homeobox protein SIX1 (Homo sapiens) + Protein phosphatase EYA2 (Homo sapiens), …; AlphaScreen GST-Six1/His-Eya2 binding, biochemical; active compounds read low; control for the full effect not named in the record; activity change, % (concentration not given with the values); 0.56% of 360,000 active; in the data active = activity change below about -65%; inconclusive = about -30% to -65%; inactive = above about -30%; note: % is set by controls: 0 for no effect and ±100 for the full control effect
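Compounds are tested against tagged Six1 and Eya2 proteins bridged by glutathione donor and nickel acceptor beads; after a one-hour incubation at 37 °C without light, AlphaScreen emission is recorded.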
TRPML1 ag: qHTS for Agonists of the Human Mucolipin Transient Receptor Potential 1 (TRPML1) | 0.12% of 410,000 active | Mucolipin-1 (Homo sapiens), Q9GZU1 | TRPML1-expressing cells, Ca2+ dye fluorescence, FDSS; host cell line not named in the record; reference of the full effect not given here | activation, % (concentration not given with the values) | AID 624414, 2012; in the data active = activation above about 50%; inconclusive = about 30% to 50%; inactive = below about 30%; note: 0% is about no effect; the text of the record puts the active cut at 80%
Target sequence (Q9GZU1 whole entry, looked up): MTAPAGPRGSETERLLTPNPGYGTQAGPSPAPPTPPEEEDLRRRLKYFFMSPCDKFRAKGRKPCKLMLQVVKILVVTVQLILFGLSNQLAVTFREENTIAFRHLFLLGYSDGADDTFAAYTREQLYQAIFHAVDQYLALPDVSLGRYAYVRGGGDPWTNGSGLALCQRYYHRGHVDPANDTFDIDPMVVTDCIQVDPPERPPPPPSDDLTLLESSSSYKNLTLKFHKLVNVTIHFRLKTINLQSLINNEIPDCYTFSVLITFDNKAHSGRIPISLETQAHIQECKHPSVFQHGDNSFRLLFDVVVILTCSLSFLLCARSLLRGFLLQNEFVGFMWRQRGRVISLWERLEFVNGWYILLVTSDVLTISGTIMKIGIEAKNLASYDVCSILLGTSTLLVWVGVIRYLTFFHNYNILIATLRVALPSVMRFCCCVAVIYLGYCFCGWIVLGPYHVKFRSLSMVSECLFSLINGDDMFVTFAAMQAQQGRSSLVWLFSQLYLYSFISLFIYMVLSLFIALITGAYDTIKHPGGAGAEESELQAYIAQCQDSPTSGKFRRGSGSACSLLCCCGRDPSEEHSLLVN
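Tetracycline-induced TRPML1-DL cells are seeded and incubated overnight before loading with a no-wash Ca2+ dye and quencher. Agonist activity is taken from the 110 s fluorescence read following compound pin-transfer on an FDSS, before EC80 54-4 challenge.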
TRPML1 blocker: qHTS for Inhibitors of the Human Mucolipin Transient Receptor Potential 1 (TRPML1); Mucolipin-1 (Homo sapiens), Q9GZU1; AID 624415, 2012; TRPML1-inducible cells, Ca2+ dye fluorescence, FDSS; active compounds read low; inhibition of EC80 agonist-evoked calcium signal; 0.02% of 390,000 active; activity change, negative = inhibition, % (concentration not given with the values); in the data active means activity change below about -50%; inconclusive means about -30% to -50%; inactive means above about -30%;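 note: stimulus is agonist 54-4 at its EC80 concentration; % is set by controls: 0 for no effect and ±100 for the full control effect; the text of the record puts the active cut at -80%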
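Calcium fluorescence in TRPML1-DL cells induced overnight with Tet: a 110 s read after compound pin addition, then a 110 s antagonist read after challenge with 54-4 at 4 uM final (EC80).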
D2 agonist: Beta-Arrestin HTS for Positive Allosteric Modulators of the Human D2 Dopamine Receptor: Agonists. DiscoveRx PathHunter D2 beta-arrestin, luminescence, 90 min; 100% = 57 uM dopamine signal. 0.084% of 360,000 active. D(2) dopamine receptor (Homo sapiens), P14416. activation, % (test concentration not listed); in the data active = activation above about 40%; inconclusive = about 15% to 40%; inactive = below about 15%; note: compound concentration not given in the record; the text of the record calls up to 30% inactive
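Agonist mode: compounds alone added to overnight-plated D2 PathHunter cells for 90 min at 37 C, with 57 uM final dopamine (EC100) defining full response. Beta-arrestin recruitment detected by chemiluminescent reagent, read after 1 h at ambient temperature.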
An asterisk follows results filed as active; ? = inconclusive; . = no result given; [ ] = another dose, or the depositor's remark. The order is random; 1% or so of the library scored in one or more.

Preview (5 entries):
molecule	D2 PAM	PINK1 expr mod	Six1-Eya2 inh	TRPML1 ag	TRPML1 blocker	D2 agonist
COc1ccc(-n2c(SCC(=O)NCc3ccccc3)nc3n[nH]c(C)c3c2=N)cc1	.	2.6%	.	2.7	-20	.
Nc1nc2c(ncn2[C@@H]2O[C@H](CNCc3ccccc3)[C@@H](O)[C@H]2O)c(=O)[nH]1	-1	0.0%	29	2.0	-27	4.5
Cc1ccccc1NC(=O)C1CCC(C)(C(=O)O)C1(C)C (stereo unspecified)	2	1.7%	10	0.2	-10	-0.5
Nc1ncnc(N)c1N=Nc1ccccc1	2	-1.6%	-5	-0.3	54	-3.5
CCCC1NC(=O)c2cccnc2-n2c1nc1ccc(OC)cc1c2=O (stereo unspecified)	.	0.6%	-3	.	.	-2.7

The list itself, repeating the preview:
molecule	D2 PAM	PINK1 expr mod	Six1-Eya2 inh	TRPML1 ag	TRPML1 blocker	D2 agonist
COc1ccc(-n2c(SCC(=O)NCc3ccccc3)nc3n[nH]c(C)c3c2=N)cc1	.	2.6%	.	2.7	-20	.
Nc1nc2c(ncn2[C@@H]2O[C@H](CNCc3ccccc3)[C@@H](O)[C@H]2O)c(=O)[nH]1	-1	0.0%	29	2.0	-27	4.5
Cc1ccccc1NC(=O)C1CCC(C)(C(=O)O)C1(C)C (stereo unspecified)	2	1.7%	10	0.2	-10	-0.5
Nc1ncnc(N)c1N=Nc1ccccc1	2	-1.6%	-5	-0.3	54	-3.5
CCCC1NC(=O)c2cccnc2-n2c1nc1ccc(OC)cc1c2=O (stereo unspecified)	.	0.6%	-3	.	.	-2.7
CCCCC(=O)NCc1nc2cccnc2n1Cc1ccc(OC)cc1	.	0.9%	.	-1.1	5	.
CC(=C/c1ccccc1)/C=N/NC(=O)c1cnccn1	-6	-0.9%	4	0.0	1	-1.9
COc1ccc(NC(=O)CN(C)C(=O)c2ccc3c(c2)NC(=O)CS3)cc1	-4	0.3%	-1	-0.3	-7	-4.6
CCC(=O)N1CCC1(C)C(=O)NCc1ccccc1SC (stereo unspecified)	-1	2.3%	-5	-0.1	.	-4.1
O=C(COC(=O)c1ccc(-c2cnc3ccccc3n2)cc1)c1ccccc1	-1	-1.4%	2	-0.7	-18	-3.3
Brc1ccc2[nH]ncc2c1	-7	0.4%[38.3 µM]	2	-0.3	-14	-2.3
Cc1cc(NC(=O)CSc2nnc3c(C)cc4cc(C)c(C)cc4n23)no1	1	-0.2%[38.3 µM]	-3	4.1	-8	0.5
CCCn1c(=N)c(C(=O)NCc2cccnc2)cc2c(=O)n3ccccc3nc21	.	-1.3%	.	-0.8	3	.
COc1ccc(CCNC(=O)c2cc(-c3ccccc3)c(N3CCOCC3)s2)c(OC)c1OC	4	-0.1%	-9	1.4	6	-0.3
C/C(=N/NC(=O)c1ccoc1C)C12CC3CC(CC(C3)C1)C2	-23	1.1%	-5	-0.6	-14	-0.2
CC1CCCN1c1ccnc2cc(Cl)ccc12 (stereo unspecified)	-7	2.4%	-2	-0.3	7	2.9
CC1CCN(S(=O)(=O)c2cccc(C(=O)O)c2)CC1	0	8.0%[38.3 µM]	5	0.6	-2	0.4
NC(=O)CNC(=O)c1ccc(Cl)cc1	-13	1.8%	6	0.9	-8	-0.5
CCCn1nnnc1NC(=O)c1ccc2ccccc2c1	-9	-4.0%	-8	0.5	6	-0.9
COc1nc(NC(C)(C)C)nc(Oc2ccc(=O)n(C)n2)n1	-6	1.5%	3	-0.7	29	-3.2
Cc1ccsc1/C=N\NC(=O)CCc1c(C)n[nH]c1C	2	4.0%	10	1.4	-5	-5.8
CCOC(=O)c1c(N)sc2c1CCS(=O)(=O)C2	-17	-0.8%	-2	-0.4	40	-2.0
CC(C)COC(=O)N1CC(O)CC1C(=O)O (stereo unspecified)	2	.	0	0.1	0	-0.1
CCOC(=O)c1cc(C(=O)OCC)c2cc(Br)ccc2n1	-9	-3.2%[38.3 µM]	-9	1.3	2	2.8
Cn1c(=O)c2c(nc(CN3CCC(C(N)=O)CC3)n2CCc2ccccc2)n(C)c1=O	-10	2.4%	-17	-1.2	2	-2.6
FC(F)(F)c1cc(NCc2cccs2)n2ncnc2n1	-6	-1.5%[38.3 µM]	2	-0.4	-8	2.2
CCOc1ccc(CCN2CN(CC)CNC2=S)cc1OCC	-2	-0.5%	-9	-0.2	-23	-0.2
COc1ccccc1C1CN(c2ccccc2)N=C1c1cccs1 (stereo unspecified)	-3	8.3%[38.3 µM]	126	1.8	-5	4.4
CC(C)(C)OC(=O)N1CCC(c2c(C(=O)N3CCN(c4ncccn4)CC3)cnn2-c2ccc(F)cc2F)CC1	.	1.0%	.	0.6	23	.
C#CCOCCOCCOCCNc1nc(N2CCN(C(=O)Cn3cc(CC(C)O)nn3)CC2)nc(N2CCN(C(=O)[C@H]([C@@H](C)CC)n3cc(CCCN=C(N)N)nn3)CC2)n1 (stereo partly specified)	-19	1.3%	7	-0.3	-2	-1.8
COc1ccc(NC(=O)COC(=O)C2CCC2)cc1Cl	-5	0.0%	2	0.7	-29	4.7
CC1CCN(C(=O)c2cc(-c3ccc4c(c3)OCO4)on2)CC1	-5	-1.3%	4	2.9	14	-0.4
Cc1ccc(NC(=O)CC2(CC(=O)O)CCCC2)c(C)c1	3	-0.5%	10	0.2	8	-1.5
COc1cc(Nc2nc3ccc(Cl)cc3n3cnnc23)cc(OC)c1OC	-1	0.6%	1	0.4	52	2.1
O=C1NC[C@H](CCCCN2C[C@H](Cc3ccccc3)N(CCC3CCCCC3)C(=O)C2=O)N(CCc2ccc(O)cc2)C1=O	.	2.3%	3	-0.1	.	.
COc1ccc(C(C(=O)Nc2ccc(C(C)C)cc2)N(Cc2ccco2)C(=O)CC2NC(=O)NC2=O)cc1 (stereo unspecified)	6	3.0%	-11	1.9	-6	-6.4
O=C(CCCCn1c(=O)c2ccccc2n(Cc2ccc(F)cc2Cl)c1=O)NCCc1ccc(Cl)cc1	.	8.6%	.	0.1	-7	.
Cc1ccc(S(=O)(=O)N2CCN(Cc3cc(C(C)(C)C)ccc3O)CC2)cc1	-3	3.9%	-7	11	15	1.5
COc1ccc(CN2COc3ccc4c(-c5ccccc5)cc(=O)oc4c3C2)cc1OC	.	-0.1%	.	-1.2	-3	.
OC(CNCc1ccc(-c2ccccc2)cc1)c1ccccc1 (stereo unspecified)	-19	12%	-1	-0.8	22	-5.2
Cc1cccc(N2CCN(C(=O)C34CC5CC(CC(C5)C3)C4)CC2)c1C	-12	0.2%	2	-0.1	6	-1.2
CCOc1ccc(OCCC(=O)Nc2ccc3c(c2)OCO3)cc1	-1	-0.7%	12	0.9	-14	0.9
COc1ccc(OC)c(CCNC(=O)Cn2cccc2C(=O)c2ccccc2)c1	-6	-1.4%	-7	0.9	-7	0.4
Cc1nnc(SCC(=O)Nc2ccc(N3CCN(S(C)(=O)=O)CC3)cc2)o1	-3	-1.1%	3	0.6	-3	-6.2
O=C(COC(=O)/C=C/c1ccc(Cl)c(Cl)c1)NC1CCS(=O)(=O)C1 (stereo unspecified)	14	0.0%	-4	-0.2	-2	2.9
COC(=O)CCS(=O)(=O)c1cc(Cl)ccc1Cl	4	17%[38.3 µM]	0	-0.9	-2	-1.0
O=C(Nc1cccn(Cc2c(Cl)cccc2Cl)c1=O)c1ccc(Cl)cc1Cl	-10	8.0%[38.3 µM]	3	0.3	9	-2.8
O=C(NCc1ccco1)c1cc(-c2cccnc2)nc2ccc(Cl)cc12	2	0.2%	-9	-0.3	-2	0.8
OC(CN1CCOCC1)c1ccc(F)cc1 (stereo unspecified)	-9	2.1%	-3	0.8	-4	0.5
COc1ccc(C2/C(=C(\O)c3ccc4c(c3)OCCO4)C(=O)C(=O)N2c2nc(C)c(C(C)=O)s2)cc1 (stereo unspecified)	-16	0.3%	-7	0.2	-10	-1.2
COc1ccc(NC(=O)CN2C(=O)c3cccc4cccc2c34)cc1OC	-7	7.9%	-2	0.3	-13	-1.9
C=C(C)C(=O)Oc1ccc(N=Nc2ccc(C)cc2)ccc1=O	-20	?	?	0.1	-6	-2.7
O=C(N/N=C/c1cc(Br)c(O)c(Br)c1O)c1cccnc1	-7	0.1%	-91*	0.6	10	-4.2
CC(=O)Nc1cncc(-c2cccc(C(=O)N3CCOCC3)c2)n1	-1	2.0%	-1	0.2	.	-6.8
CSc1ccc(S(=O)(=O)NCCSC(C)(C)C)cc1	1	-0.3%[38.3 µM]	3	0.4	28	0.3
COc1ccc(C(C(=O)NC2CCCC2)N(C(=O)c2ccoc2C)c2cc(C)cc(C)c2)cc1 (stereo unspecified)	-5	-0.4%[38.3 µM]	-2	0.7	44	-3.1
CCc1nnc(NC(=O)CN2CCN(Cc3ccccc3C)CC2)s1	-23	0.6%	1	0.4	3	0.0
CC1=C(C#N)C(c2cccnc2)C2=C(CCCC2=O)N1 (stereo unspecified)	7	-1.2%	11	-0.2	7	0.6
CN=C(C)/C(C(=O)OC)=C(/O)c1ccc(Cl)cc1Cl	-7	2.1%	6	-0.1	-19	-2.8
O=C(CCC(=O)N(CC(=O)NC1CCCCC1)Cc1ccco1)Nc1nccs1	-18	0.6%	-3	1.4	-1	-4.0

(continued)
molecule	D2 PAM	PINK1 expr mod	Six1-Eya2 inh	TRPML1 ag	TRPML1 blocker	D2 agonist
O=S(=O)(c1ccc(F)cc1)N1CCc2ccccc21	7	0.3%	18	.	.	1.1
COC(=O)CC1Oc2ccccc2N(Cc2ccc(C)cc2)C1=O (stereo unspecified)	-22	0.6%	1	1.0	4	-2.9
CCCCC(=O)OCC(=O)c1ccc(OCC)cc1	-9	2.8%[38.3 µM]	16	1.5	0	-2.7
O=C1CSc2ccc(C(=O)O)cc2N1	1	-3.2%	4	0.8	?	-1.8

4 of the compounds above, with each value named:
O=S(=O)(c1ccc(F)cc1)N1CCc2ccccc21
- D2 PAM = 7
- PINK1 expr mod = 0.3%
- Six1-Eya2 inh = 18
- TRPML1 ag = .
- TRPML1 blocker = .
- D2 agonist = 1.1
COC(=O)CC1Oc2ccccc2N(Cc2ccc(C)cc2)C1=O (stereo unspecified)
- D2 PAM = -22
- PINK1 expr mod = 0.6%
- Six1-Eya2 inh = 1
- TRPML1 ag = 1.0
- TRPML1 blocker = 4
- D2 agonist = -2.9
CCCCC(=O)OCC(=O)c1ccc(OCC)cc1
- D2 PAM = -9
- PINK1 expr mod = 2.8%[38.3 µM]
- Six1-Eya2 inh = 16
- TRPML1 ag = 1.5
- TRPML1 blocker = 0
- D2 agonist = -2.7
O=C1CSc2ccc(C(=O)O)cc2N1
- D2 PAM = 1
- PINK1 expr mod = -3.2%
- Six1-Eya2 inh = 4
- TRPML1 ag = 0.8
- TRPML1 blocker = ?
- D2 agonist = -1.8
